# Vaccinia Venus – vaccinia inhibition (Venus reporter); Vaccinia virus Venus reporter expression, fluorescence; Potency, µM (top dose mostly 36.5 µM), for the others: at the highest dose activity change, negative = inhibition, hits mostly inhibitors; 0.46% of 330,000 active; active means well fitted inhibition curve with a large enough effect; inconclusive means small, poorly fitted or top-dose-only effect; inactive means no such curve, though single readings can be large or run the other way; tested in A549 cells; further: nearly all actives have a fitted effect of over 30% in size; inactives centre near -10
# Vaccinia mCherry – vaccinia inhibition (mCherry reporter); Vaccinia virus mCherry reporter infection, fluorescence; about a quarter of the inactives have no number; Potency, µM (highest dose often 36.5 µM), for the others: top-dose activity change, negative = inhibition, usual class: inhibitors; 0.63% of 310,000 active; active = well fitted inhibition curve with a large enough effect; inconclusive = small, poorly fitted or top-dose-only effect; inactive = no such curve, though single readings can be large or run the other way; tested in A549 cells; further: nearly all actives have a fitted effect of over 35% in size; inactives centre near -10
# * = called active by the depositor; i = inactive; ? = inconclusive; nt = no result given; & = joins results of further samples; [ ] = remark or other dose. On the % scale 0 is the no-effect control and ±100 the full control effect; potency means the concentration at half of the fitted maximal effect. Compounds were not picked by outcome. About 0.87% of those tested had a hit in this group.
SMILES,Vaccinia Venus,Vaccinia mCherry
CC(OC(=O)c1cccc(S(=O)(=O)N2CCCCC2)c1)C(=O)NCC1CCCCC1 (centres undefined),-1.1%,-8.9%
O=C(N/N=C/c1ccncc1)C1C2CCCCCCC21 (centres undefined),-10.4%,-19.4%
N#Cc1c(-c2ccccc2)nc(SCC(=O)N2c3ccccc3Sc3ccccc32)[nH]c1=O,-12.7%,?
Cc1ccc(C(C)C)c(OCC(=O)Nc2c(C(=O)c3ccc(F)cc3)oc3ccccc23)c1,-11.4%,-0.6%
COc1ccc2c(c1)[nH]c1c(=O)n(/N=C/c3ccc(OC)c(CN4CCCC4)c3)cnc12,?,-27.4%
COc1ccccc1Sc1ccccc1CC(C)N (centres undefined),-19.9%,-25.9%
CCCNC(=O)C1(C)CCCN(C(=O)c2ccc(F)cc2Cl)C1 (centres undefined),9.5%,6.1%
O=C(NCCn1cc(SCC(=O)N2CCOCC2)c2ccccc21)c1c(F)cccc1F,-5.9%,-9.1%
CCCOc1ccc(-c2nonc2NC(=O)c2ccco2)cc1OCCC,-11.1%,-14.2%
CS(=O)(=O)N(CC(=O)NCC1CCCO1)c1cccc(Cl)c1 (centres undefined),-13.4%,-4.3%
Nc1ncn(C23CC4CC(CC(C4)C2)C3)n1,-12.1%,-21.4%
COc1ccc([C@@H]2[C@@H]3C(=O)N(C(C)(C)C)C(=O)[C@@H]3[C@]3(Cc4ccccc4)C(=O)N(c4ccccc4)C(=O)N23)cc1,-6.2%,i
O=C(CN1CCCCCC1)Nc1ccc(Br)cc1,-18.6%,-23.9%
O=C(C1=C[C@@H](C2CC2)C[C@@H](OCCCCO)O1)N1CCOCC1,-13.4%,-14.1%
CC1CCN(c2ccc(C(=O)NCCc3ccccc3)cn2)CC1,-18.2%,-0.6%
O=C(N/N=C(/c1ccccc1)c1ccncc1)c1ccc2c(c1)OCO2,28.5%,i
Nc1nc(NCc2ccccc2)nc(-c2ccccc2)n1,-20.7%,-19.1%
Cc1nc(-c2cccc(F)c2)sc1CCNC(=O)Cc1ccc(F)cc1,-3.6%,11.4%
COC(=O)C[C@H]1C[C@@H]2c3cc(NS(=O)(=O)c4ccc(OC)cc4)ccc3O[C@@H]2[C@H](CO)O1,5.1%,7.2%
Cc1ccc(Cl)cc1N(C)C(=O)Cn1nc(Cc2cccnc2)c2ccccc2c1=O,-11.5%,i
Cc1ccc(S(=O)(=O)N2CCC(=O)N([C@H](COCc3ccc(C(F)(F)F)cc3)Cc3ccccc3)CC2)cc1,-17.9%,-4.5%
CC1(C)Cc2c(C#N)c(NCCO)nc(-c3ccco3)c2CO1,-1.2%,i
Cc1c(C(=O)N2CCOCC2)oc2c1C(=O)CC(C)(C)C2,-4.5%,-7.6%
CCOc1cc(/C=N/NC(=O)CNc2cccc(C)c2)ccc1OC(=O)c1ccccc1,-8.1%,nt
CCOc1ccccc1Nc1cc(C)nc2nc(C)nn12,0.1%,0.4%

# Of the compounds above, these have an NH in an aromatic ring.
SMILES,Vaccinia Venus,Vaccinia mCherry
N#Cc1c(-c2ccccc2)nc(SCC(=O)N2c3ccccc3Sc3ccccc32)[nH]c1=O,-12.7%,?
COc1ccc2c(c1)[nH]c1c(=O)n(/N=C/c3ccc(OC)c(CN4CCCC4)c3)cnc12,?,-27.4%

# Carrying on.
SMILES,Vaccinia Venus,Vaccinia mCherry
O=C(NC1CCCCC1)c1ccc2c(=O)n(CC3CCCO3)c(=O)[nH]c2c1 (centres undefined),-19.3%,-15.5%
Cc1sc2ccccc2[n+]1CCC[n+]1c(C)sc2ccccc21,?,?
O=C(Nc1ncc(Cc2ccccc2)s1)C1=NCCN1,-12.2%,-9.3%
C=CCSCC(N)C(=O)O (centres undefined),-15.8%,-17.7%
CC(CNC(=O)CN1C(=O)NC2(CCCCC2C)C1=O)c1ccccc1 (centres undefined),-13.3%,i
Nc1ccc(Cn2ccc3c4c(N)nc(N)nc4ccc32)cc1,?,0.355µM*
O=C1OCCC1=CN1CCCCC1,-9.8%,-5.6%
O=C(CCN1C(=O)C2C3C=CC(C4CC34)C2C1=O)Oc1cccc2cccnc12 (centres undefined),-12.4%,i
CCN1C(=O)N[C@@H](c2cccc(C(F)(F)F)c2)[C@@H](C(=O)OC)[C@H]1C,-19.5%,i
Cc1ccc2nc(N3CCN(c4ccc(F)cc4)CC3)c3nnnn3c2c1,-3.0%,-10.1%
O=C(NCCC(F)(F)F)c1cccc2c(-c3ccc(F)c(F)c3)coc12,-4.0%,3.8%
Cc1ccc(S(=O)(=O)N2[C@@H](c3ccc(Cl)cc3)C(C(=O)O)=CC[C@H]2c2ccc(Cl)c(Cl)c2)cc1,-25.4%,?
O=C(Nc1ccccc1Cl)c1cccc(NC(=O)c2cccs2)c1,-26.7%,-14.1%
N#Cc1cccnc1N1CCN(C(=O)c2ccc3c(c2)S(=O)(=O)c2ccccc2C3=O)CC1,-12.1%,-7.3%
CCc1nnc(NS(=O)(=O)c2ccc(NC(=S)NC(=O)c3ccccc3)cc2)s1,-15.9%,i
Cc1ccc(-c2nc(N)n(C(=O)c3cccs3)n2)cc1,-2.3%,-10.7%
O=C(Cn1c(-c2ccccc2)c[n+]2ccsc12)c1ccccc1,-26.7%,i
Cc1ccccc1N1CCN(C(=O)c2cccnc2)CC1,-10.1%,-12.0%
Cc1ccc(-c2noc(CCC(=O)N3CCN(c4cccc(C(F)(F)F)c4)CC3)n2)cc1,?,nt
CCCn1c(SCC(=O)NCc2ccccc2)n[nH]c1=O,-13.0%,-18.7%
COc1cccc(C(=O)C2CCCN(Cc3cnn(C(C)C)c3)C2)c1 (centres undefined),2.6%,-4.0%
CN1C(=O)c2ccccc2Sc2ccc(NC(=O)c3ccc(C#N)cc3)cc21,-12.1%,-13.1%
COc1cccc(/C=N\NC(=O)Cn2nnc3ccccc32)c1O,?,?
OCC1(Cc2ccccc2F)CCCN(CCc2ccccc2)C1 (centres undefined),-10.6%,-13.3%
O=C(NNS(=O)(=O)c1ccccc1[N+](=O)[O-])c1ccccc1Cl,-1.6%,i
SMILES,Vaccinia Venus,Vaccinia mCherry
CCc1ccc(S(=O)(=O)Nc2ccc(Br)cn2)cc1,-22.7%,-21.0%
COc1ccc(NC(=O)c2c(NCc3ccc(N(C)C)cc3)sc3c2CCC3)cc1,-1.8%,-3.2%
COc1ccc(C(=O)O/N=C(/C(N)=O)P(=O)(OC(C)C)OC(C)C)cc1,-3.1%,-7.7%
Cc1cc(C)c2c3c(oc2n1)C(=O)N(c1cccc(Cl)c1)CC(=O)N3,-6.3%[7.34 µM],17.7%[7.34 µM]
c1ccc(CCn2cnc3ccccc32)cc1,3.7%,-14.3%
O=C1Nc2ccccc2C1(O)c1ccccc1O (centres undefined),-16.7%,-1.8%
CCOc1cc(/C=C2\C(=O)ON=C2C)ccc1OCc1ccccc1,-5.0%,-13.6%
c1ccc2ncc(-n3ccnc3)cc2c1,-3.1%,i
CCN1CCN(C(=O)c2cc(NC(=O)COC)cc3nc(-c4ccncc4)n(C)c23)CC1,1.0%,-10.2%
Cc1cc(C)n(-c2nc3c(c(=O)n(C)c(=O)n3C)n2Cc2cccc(Br)c2)n1,4.4%,-16.7%
COc1ccccc1NS(=O)(=O)c1ccc(C)c(C(=O)NCC(c2ccco2)N2CCCCC2)c1 (centres undefined),-12.8%,-1.2%
O=c1cc(CSc2nnc3ccccn23)c2c(ccc3ccccc32)o1,-6.8%,-17.6%
COc1ccc(NC(=O)C2C(c3ccc4c(c3)OCO4)=Nc3ccccc3N2C(C)=O)cc1 (centres undefined),-19.2%,?
Cc1cc(C(=O)CS(=O)(=O)c2ccc(F)cc2)cc(C)c1OC(=O)N(C)C,-26.3%,-29.9%
CC(=O)N(C)c1ccc(OCC(O)CN(c2ccccc2C)S(=O)(=O)c2ccc(C)cc2)cc1 (centres undefined),?,-23.5%
O=C1OC(c2ccc3c(c2)OCO3)N(C(=O)c2ccc(Cl)c(Cl)c2)c2ccccc21 (centres undefined),-16.6%,i
CCSc1nc(-c2ccccc2)nc2c1CCCC2,-10.7%,-3.0%
CCS(=O)(=O)N1CCc2cc(OC)c(OC)cc2C1,-6.4%,-10.0%
Cc1cc(C)c(S(=O)(=O)c2ccccc2C)c(N(C)C)n1,-11.9%,nt
CN1CCC(N(C)C(=S)NCCc2ccccc2)CC1,2.6%,9.0%
O=C(CSc1nc2c([nH]c3ccccc32)c(=O)n1-c1ccc(F)cc1)N1CCCCC1,-5.6%,-3.7%
CCOC(=O)C1(CCOc2ccccc2)CCN(CCCn2cccn2)CC1,-10.2%,-9.1%
Cc1nn(-c2ccccc2)c(Cl)c1/C=C/C(=O)c1ccc(O)cc1,?,?
CCOC(=O)c1cccc(NC(=O)C2COc3ccc(OC)cc3C2)c1 (centres undefined),-11.7%,-2.0%
CC(=O)N(C)c1ccc(C=C2C=Cc3ccccc32)cc1,-16.6%,?

# Full records, looked up by structure:
# CCOc1cc(/C=N/NC(=O)CNc2cccc(C)c2)ccc1OC(=O)c1ccccc1 in the list: Vaccinia Venus = -8.1%; Vaccinia mCherry = nt
# CN1C(=O)c2ccccc2Sc2ccc(NC(=O)c3ccc(C#N)cc3)cc21 in the list: Vaccinia Venus = -12.1%; Vaccinia mCherry = -13.1%

# Going on with the list:
SMILES,Vaccinia Venus,Vaccinia mCherry
CC1(C)CC(=O)C2=C(C1)NC(=O)NC2c1ccccc1Cl (centres undefined),-10.9%,i
CCS(=O)(=O)c1ccc2oc(Nc3ccccc3Cl)nc2c1,-21.8%,-27.0%
CC(C)Sc1nc(-c2cccs2)nc2cc(Cl)ccc12,0.3%,1.0%
O=S(=O)(CCNCCc1ccccc1)NC1CCCCC1,-5.7%,-6.7%
CC(C)C1N=C2c3ccccc3N=C(SCC(=O)NCc3ccc(Cl)cc3)N2C1=O (centres undefined),-7.6%,-6.8%
CCN(CC)c1ccc(NC(=O)CN2C(=O)CSc3ncccc32)c(C)c1,-12.3%,i
CCN1CCN(C(=O)NC(C(=O)NC2C(=O)N3C2SC(C)(C)C3C(=O)O)c2ccccc2)C(=O)C1=O (centres undefined),-2.3%,-0.7%
C/C(CC(=O)Nc1ccc(N(C)C)cc1)=N\NC(=O)Cc1csc(N)n1,-6.1%,i
CCOC(=O)c1ccc(NC(=O)c2nc[nH]c2C(=O)N[C@@H](Cc2ccccc2)C(=O)OC(C)(C)C)cc1,?,12.6µM*
c1ccc(CNc2ncnc3ccccc23)cc1,?,-8.2%
c1ccc(-c2nccc(-c3ccc(-n4cnc5ccccc54)cc3)n2)cc1,-16.3%,i
CSc1ccc(CCNC(=O)Cn2ncc3c([nH]c4ccccc43)c2=O)cc1,-16.2%&-4.0%,1.4%
Clc1ccc(COn2c(-c3ccc(Cl)cc3Cl)nc3ncccc32)cc1,-28.8%,?
Cc1nn(-c2ccccn2)c(C)c1Oc1ccccc1O,-6.9%,-10.6%
Cc1ccc(CNC(=O)CN2C(=O)C3CCCCN3c3ccc(C(=O)N4CCCC4)cc32)cc1 (centres undefined),-4.9%,1.0%
CCNC(=O)C1CCN(Cc2cc3ccccc3n2Cc2ccc(C)cc2)CC1,-4.2%,-13.1%
Cc1ccccc1C(=O)N1CCC(n2nccc2NC(=O)C2CC2)CC1,-15.6%,-22.2%
COc1ccc(S(=O)(=O)N2CC(O)CC2C(=O)OCc2nc3sc(C)c(C)c3c(=O)[nH]2)cc1 (centres undefined),-3.5%,-7.2%
COn1c2c(c3c4nonc4ccc31)CCCC2,-19.9%,-10.4%
CCOc1ccc(C(=O)NCCc2sc(-c3ccc(OC)c(OC)c3)nc2C)cc1,-25.6%,-26.6%
CN(CC(=O)Nc1ccccc1C(F)(F)F)CC(=O)N1CCCCCC1,0.9%,-1.8%
Nc1cc(Cl)ccc1N1C(=O)CCC1=O,-8.2%,i
O=C1NC(=O)N(c2ccccc2)C(=O)/C1=C/c1ccc([N+](=O)[O-])s1,126.0%[activator],13.2%
O=C(COc1ccc(Br)cc1)Nc1ccc(Cl)cc1C(=O)c1ccccc1,-14.7%,-15.1%
C=Cc1ccc(C(=O)NC2CCCN(Cc3ccccc3F)C2)cc1 (centres undefined),-5.0%,i
SMILES,Vaccinia Venus,Vaccinia mCherry
Cc1ccc(NC(=O)c2cccs2)cc1S(=O)(=O)Nc1cccc(Cl)c1,-29.2%,-24.4%
COC(=O)[C@]12CCCCC=C1N(CCc1ccc(OC)c(OC)c1)C(=O)[C@H](CC(=O)NCCCCc1ccccc1)C2,?,?
COCCCn1c(=O)c2sccc2n2c(CCCC(=O)NC3CCC(C)CC3)nnc12 (centres undefined),-6.8%,-6.1%
CCC(C)C(CO)NCCCn1cnc(C(=O)Nc2ccc(C)c(C)c2)n1 (centres undefined),-25.3%,-5.3%
CCS(=O)(=O)c1ccccc1C(=O)Nc1ccc(-c2nc3ccccc3s2)cc1,-12.1%[7.34 µM],-4.9%[7.34 µM]
CN(C(=O)CSc1nc2ccc(NC(=O)c3cccs3)cc2s1)c1ccccc1,-12.1%,i
O=C(O)C1C2C=CC(O2)C1C(=O)NCc1ccc(Cl)cc1 (centres undefined),-12.4%,-15.7%
Clc1ccc(CO/N=C(\Cn2ccnc2)c2ccc(Cl)cc2Cl)c(Cl)c1,-8.3%,i
CCc1nc2ccc(C(=O)NCc3ccco3)cc2nc1CC,-15.9%,-32.9%
CCOC(=O)c1sc(-c2ccc(C)cc2)c(C#N)c1C,-7.5%,i
CC(C)OC(=O)c1ccc2nc3ccccc3nc2c1,?,-26.8%
Cc1cc(=O)[nH]c(N/N=C/c2ccc(N(C)C)cc2)n1,-15.9%,-8.3%
O=C1C2CC=CCC2C(=O)N1Cc1ccccc1 (centres undefined),-5.4%,-4.2%
